V. cholerae QS – Vibrio cholerae quorum sensing activators, luminescence (AID 686977). V. cholerae quorum sensing reporter, luminescence, 6 h; higher luminescence means a stronger effect; most inactives read 0. one-dose luminescence at 50 µM unless noted; EC50 in µM for titrated hits. 9,400 tested, under 10 active;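 active = light above mean plus 3 SD and confirmed in a dose series; inconclusive = above that limit without a clear retest; inactive = below it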;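 note: raw light counts without normalisation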
An asterisk follows results filed as active; ? = inconclusive; [ ] = another dose, or the depositor's remark. Not all compounds are listed. The share of hits here may be higher or lower than overall.

Molecule | V. cholerae QS
Cc1c(S(=O)(=O)N2CCN(c3cccc(C(F)(F)F)c3)CC2)c(=O)n(C)c(=O)n1C | 40
Cc1ccccc1CN1C(=O)CSc2ccc(C(=O)N3CCOCC3)cc21 | 0
Nc1ccc(S(=O)(=O)Nc2nccs2)cc1 | 0[10 µg/mL]
Cn1cc(S(=O)(=O)NCc2cccs2)c(=O)n(C)c1=O | 0
Cc1cc(C)n(C(=O)c2ccc(NC(=O)C3CC3)cc2)n1 | 0
O=S(=O)(NCCc1cn2ccccc2n1)c1ccc2c(c1)OCCO2 | 0
CC(=O)N1C(Nc2ccc(Cl)cc2)CCN1c1ccccc1 (stereo not drawn) | 0
CC(CC(=O)N1CCc2ccccc21)c1ccccc1 (stereo not drawn) | 0
O=C1S/C(=C/c2ccc(N3CCOCC3)o2)C(=O)N1Cc1c(F)cccc1Cl | 0
COC(=O)c1ccc(Cn2nc(C)cc2C)cc1 | 40
CC(c1ccccc1)n1c(NCCCn2ccnc2)nc2c1c(=O)[nH]c(=O)n2C (stereo not drawn) | 0
COC(=O)c1ccc(NC(=S)N2CCN(Cc3cccc(C)c3)CC2)cc1 | 80
Nc1c(C(=O)Nc2ccc(F)cc2)sc2nc(-c3ccco3)ccc12 | 280
COc1ccc(OC)c(-n2c(SCC(=O)Nc3cc(C)on3)nnc2-c2c[nH]c3ccccc23)c1 | 0
CC1(C)CC(=O)CC(C2(O)C(=O)N(Cc3ccccc3)c3ccccc32)O1 (stereo not drawn) | 0
Cc1csc(NC(=O)CCc2ccc(S(=O)(=O)N3CCOCC3)cc2)n1 | 80
CCOc1ccc(Cc2c(Cl)nc(SC)nc2OC)cc1 | 40
CC(C)CCSc1ncnc2c1oc1nc3c(cc12)COC(C)(C)C3 | 0
CCOC(=O)c1c(C)n(C)c2ccc(OCC(O)CN3CCCCCC3)cc12 (stereo not drawn) | 280
CN(C)C(CNC(=O)Nc1cccc(Cl)c1)c1cccnc1 (stereo not drawn) | 0
CC(C)(C)OC(=O)N1CCC[C@H]1c1nnc(SC/C=C/c2ccccc2)o1 | 40
CCOc1ccc(C2CC(c3ccccc3C)n3ncnc3N2)cc1 (stereo not drawn) | 0
COCCCNC(=O)Cn1cc2c(n1)CCCCC2 | 40
Cc1c(C(=O)NCC2CCCO2)sc2nc(-c3ccccc3)cn12 (stereo not drawn) | 0
CC(=C1C(=O)c2ccccc2C1=O)N1CCN(C/C=C/c2ccccc2)CC1 | ?
Cc1noc(/C=C/N(C)C)c1S(=O)(=O)N1CCCC(C(=O)NCc2ccco2)C1 (stereo not drawn) | 0
c1ccc(CC2CCN(c3nc4ccccc4n4cnnc34)CC2)cc1 | 40
Cc1ccc(OCCn2c(C3CC(=O)N(Cc4ccccc4)C3)nc3ccccc32)cc1 (stereo not drawn) | 0
Cc1ccsc1C(=O)N(c1nc2ccccc2s1)c1c(C)cccc1C | 280
O=Nc1c2nc3ccccc3n(O)c-2c2ccccc12 | 0
COc1cccc(S(=O)(=O)Nc2ccc(C(=O)N3CCOCC3)cc2)c1 | 0
Cc1cccnc1NC(=S)NC(=O)c1cncc(Br)c1 | 0
O=C(OCCN1C(=O)c2ccccc2C1=O)c1cccc(OC(F)F)c1 | 80
CCN(CCN(C)C)C(=O)Cn1ncc2c1-c1cc(C)ccc1OC2 | 0
CCn1cc(C(=O)NCCCOC)c(=O)c2cc(S(=O)(=O)N(C)C3CCCCC3)ccc21 | 40
Nc1nc(CSCCO)nc(Nc2ccc(F)cc2)n1 | 0
CN(CCCC(=O)Nc1nccs1)S(=O)(=O)c1ccc(Cl)cc1 | 0
CCOC(=O)CSc1nnc(SCCN2C(=O)c3ccccc3C2=O)s1 | 40
CN1CC[C@@]2(C)c3cc(O)ccc3N(C)[C@H]12 | 0[10 µg/mL]
COc1ccc(OC)c(NC(=O)C2CCCN(S(=O)(=O)c3cccc4cccnc34)C2)c1 (stereo not drawn) | 0
CC1CCN(c2ncnc3c2cnn3-c2ccccc2)CC1 | 0
CCc1ccc(-c2cc(C(F)(F)F)n3nc(C(=O)Nc4c(C)nn(Cc5ccccc5C)c4C)cc3n2)s1 | 0
O=C(Cn1c(=O)oc2cc(S(=O)(=O)N3CCCC3)ccc21)N1CCN(c2ccccn2)CC1 | 280
Cc1ccc(S(=O)(=O)N2CCN(C(=O)c3nn(C(C)C)c(=O)c4ccccc34)CC2)cc1C | 0
C=CCSC1=C(C#N)C(c2ccc(OCC)cc2)CC(=O)N1 (stereo not drawn) | 0
c1coc(CNc2ncnc3nc[nH]c23)c1 | 0[10 µg/mL]
COc1ccc(C(CC(=O)N2CCC3(CC2)OCCO3)NS(=O)(=O)c2ccc(F)cc2)cc1 (stereo not drawn) | ?
CCOC(=O)c1nc2ccccc2c(=O)n1-c1cccc(C)c1 | 40
c1ccc(C2Nc3ccccc3-c3nc4ccccc4n32)cc1 (stereo not drawn) | 0
CN(C)CCCN1c2ccccc2CCc2ccc(Cl)cc21 | 40[10 µg/mL]
Cc1ccn(CCSCC(=O)O)n1 | 0
Cc1ccc2cc(CN(Cc3ccc4c(c3)OCO4)Cc3nnnn3Cc3ccco3)c(=O)[nH]c2c1C | 0
CCN(CCCNC(=O)c1[nH]c(C)c(C(C)=O)c1C)c1cccc(C)c1 | 0
CN(C)Cc1c[nH]c2ccccc12 | 0[10 µg/mL]
CC1(C)CC(=O)N(CC(=O)NC2CCCC2)c2ccccc2S1(=O)=O | 40
O=C(O)CC1C(=O)NCCN1C/C=C/c1ccccc1 (stereo not drawn) | 40
COc1ccc(N2C(=O)CC(N3CCN(C4CCc5ccccc5C4)CC3)C2=O)cc1 (stereo not drawn) | 40
O=C(c1cccnc1)N1CCc2ccccc21 | 0
O=S(=O)(Nc1nc2c(s1)CCCC2)c1ccc(F)cc1 | 40
O=S(=O)(NCCc1csc(-c2cccnc2)n1)c1ccc(Cl)s1 | 0

(continued)
Molecule | V. cholerae QS
CCOC(=O)C1=C(C)Nc2nnnn2C1c1ccc(OC)c(Br)c1 (stereo not drawn) | 0
O=C1CC(c2ccccc2)Cc2nc3ncnn3cc21 (stereo not drawn) | 40
CN1CCN(c2cc(=O)n(Cc3ccc(F)cc3)c(=O)[nH]2)CC1 | 0
COc1ccccc1CNC(=O)C(CC(C)C)NS(=O)(=O)c1ccc2c(c1)oc(=O)n2C (stereo not drawn) | 40
CCn1c(CNC(=O)COc2c(C)cccc2C)nnc1SCC(=O)Nc1nccs1 | 0
CCOc1ccc(C(=O)Nc2c3c(nn2-c2cccc(C)c2C)CS(=O)C3)cc1 (stereo not drawn) | 0
O=C(Cc1ccc(F)cc1)NC1CCCC1 | 0
O=C(Cc1cn2ccsc2n1)Nc1nc2c(s1)CN(Cc1ccccc1)CC2 | 40
CCCNC(=O)NS(=O)(=O)c1ccc(Cl)cc1 | 0[10 µg/mL]
CCc1ccccc1NC(=O)c1cc(C2CC2)on1 | 40
CC(C)C(NC(=O)C1CCCCC1)C(=O)Nc1ccncc1 (stereo not drawn) | 40
O=C(C1CCN(c2nnc(-n3cccc3)s2)CC1)N1CCN(Cc2ccc3c(c2)OCO3)CC1 | 0
CCCCn1c(CCC(=O)O)ccc1-c1cccs1 | 40
C=CCOC(=O)C1C(=O)CC(C)(O)C(C(=O)OCC=C)C1c1ccc(OC)cc1 (stereo not drawn) | 0
COc1ccccc1NC(=O)CCNC(=O)Cn1ccc2ccccc2c1=O | 0
COc1ccc(NC(=O)C2CCCN(S(=O)(=O)c3cccc4cccnc34)C2)c(OC)c1 (stereo not drawn) | 0
CCOC(=O)N1CCC(NC(=O)C2CCCN(Cc3nc(-c4cccc(Cl)c4)oc3C)C2)CC1 (stereo not drawn) | 40
CC(C)(C)NS(=O)(=O)c1ccc(-c2csnn2)s1 | 40
CC(=O)S[C@@H]1CC2=CC(=O)CC[C@]2(C)[C@H]2CC[C@@]3(C)[C@@H](CC[C@@]34CCC(=O)O4)[C@H]12 | 0[10 µg/mL]
CCOc1ccc(-c2nc(CSCC(=O)NCc3ccco3)c(C)o2)cc1 | 0
O=C(NCc1ccco1)C1OCCc2ccccc21 (stereo not drawn) | 0
O=C(O)/C=C/c1ccc(Cn2ccnc2)cc1 | 0[10 µg/mL]
O=C(CCCN1CC=C(n2c(=O)[nH]c3ccccc32)CC1)c1ccc(F)cc1 | 200[10 µg/mL]
O=C(NC(Cc1c[nH]c2ccccc12)C(=O)O)c1ccccc1 (stereo not drawn) | 0
Cc1cccc(NC(=S)N2CCC(c3nc4ccccc4s3)CC2)c1 | 40
Cc1ccc2c(c1)NC(=O)C(CC(=O)NCCCN1CCCC1)O2 (stereo not drawn) | 40
COc1c(C)cc(Br)cc1C(=O)Nc1cccc(-c2nc3ncccc3o2)c1 | 0
CCN(CCNC(=O)C1CCCN(S(=O)(=O)c2cnc[nH]2)C1)c1ccccc1 (stereo not drawn) | 0
Oc1ccccc1-c1nc(NCCN2CCOCC2)c2ccccc2n1 | 0
COc1ccc(C(=O)N(Cc2nc(-c3ccc(C)cc3)no2)C(C)C)cc1OC | 0

Some of the entries so far, with each value named:
Cc1ccc2c(c1)NC(=O)C(CC(=O)NCCCN1CCCC1)O2 (stereo not drawn)
  V. cholerae QS: 40
COc1c(C)cc(Br)cc1C(=O)Nc1cccc(-c2nc3ncccc3o2)c1
  V. cholerae QS: 0
CCN(CCNC(=O)C1CCCN(S(=O)(=O)c2cnc[nH]2)C1)c1ccccc1 (stereo not drawn)
  V. cholerae QS: 0
Oc1ccccc1-c1nc(NCCN2CCOCC2)c2ccccc2n1
  V. cholerae QS: 0

Next part.
Molecule | V. cholerae QS
O=C(NCc1ccco1)C1(c2ccc(Br)cc2)CCCC1 | 0
CCc1oc2ccccc2c1C(=O)c1cc(Br)c(O)c(Br)c1 | 320[10 µg/mL]
COc1ccc(NS(=O)(=O)c2cccc(C(=O)N/N=C(\C)c3ccc(-n4ccnc4)cc3)c2)cc1 | 0
COc1ccc2[nH]c(C)c(CCN(Cc3cccs3)C(=S)Nc3ccccc3OC)c2c1 | 0
CN(C)CCN1C(=O)c2oc3ccc(Cl)cc3c(=O)c2C1c1cccc(Br)c1 (stereo not drawn) | 0
COCCn1nnnc1SCC(=O)N1CCCCC1 | 0
CCOC(=O)c1sc(NS(=O)(=O)c2ccc(NC(C)=O)cc2)nc1C | ?
O=C(OCCN(C1=NS(=O)(=O)c2ccccc21)c1ccccc1Cl)c1ccc(Cl)cc1 | 80
CCOC(=O)C1CCCN(C(=S)Nc2ccc(C)cc2C)C1 (stereo not drawn) | ?
Cc1ccc(-c2nc(CS(=O)CC(=O)NCc3ccccc3)c(C)o2)cc1 (stereo not drawn) | 0
Cc1noc(NS(=O)(=O)c2ccc(NC(=O)CSc3nnc(-c4ccccc4)n3C3CCCCC3)cc2)c1C | 40
CCN(CC)CCCNC(=O)c1cc2c(-c3ccc(Cl)cc3)nn(C)c2s1 | 0
Clc1ccc(C2CC(c3ccccc3)Nc3ncnn32)cc1 (stereo not drawn) | 40
CCOC(=O)c1cc(C)[nH]c(=S)c1C#N | 0
Cc1ccc(S(=O)(=O)N2CC(=O)Nc3ccccc32)cc1 | 0
O=C(NCCCNC(=O)C(F)(F)C(F)F)C(F)(F)C(F)F | 40
COC(=O)c1c(N2C(=O)CCC2=O)sc2c1CCCC2 | 0
Cn1nc(-c2ccccc2)c(-c2nc(-c3ccccc3Cl)no2)c1Cl | 0
Cc1ccc2oc(=O)c3cnn(CC(=O)N4CCCCCC4)c3c2c1 | 0
CC(=O)/C(=N/Nc1cccc(Cl)c1)N1CCOCC1 | 40
O=C(NCC1CCCO1)c1ccc2nc(N3CCCCC3)sc2c1 (stereo not drawn) | 0
COc1cccc(-n2c(SCC(=O)Nc3cc(C)on3)nc3c([nH]c4ccccc43)c2=O)c1 | 40
CC(CN1CCOCC1)C(=O)c1ccccc1 (stereo not drawn) | 0
CCC(=O)O[C@@H]1CC(=O)O[C@H](C)C/C=C/C=C/[C@@H](O)[C@H](C)C[C@H](CC=O)[C@H](O[C@@H]2O[C@H](C)[C@@H](O[C@H]3C[C@@](C)(O)[C@@H](OC(=O)CC)[C@H](C)O3)[C@H](N(C)C)[C@H]2O)[C@H]1OC | 0[10 µg/mL]
CCOC(=O)c1c(-c2ccc(C)o2)csc1N | 0
COc1ccc(N/N=C(\C=N\O)C(=O)c2ccc(OC)cc2)cc1 | 0
COc1ccccc1Nc1cc(C(=O)NCCCN2CCOCC2)c2ccccc2n1 | 0
COC(=O)Nc1nc2ccc(C(=O)c3cccs3)cc2[nH]1 | ?
Cc1ccc(NC(=O)CN2CCC3(O)CCCCC3C2c2ccc3c(c2)OCO3)c(C)c1 (stereo not drawn) | 0
CCn1ncc(/C=N/O)c1C | 0
C=CCn1c2ccccc2c2nnc(SC(CC)C(=O)Nc3nc(C)c(C(=O)OCC)s3)nc21 (stereo not drawn) | ?
O=C(COC(=O)Cc1ccsc1)NCC12CC3CC(CC(C3)C1)C2 | 40
Cc1ccc(S(=O)(=O)CCc2nnc(NC(=O)C3CCCO3)s2)cc1 (stereo not drawn) | 0
CC(=O)c1c(C)[nH]c(C(=O)N2CCC3(CC2)OCCO3)c1C | 0
COc1ccc(CC(=O)Nc2c3c(nn2-c2cccc(Cl)c2)CS(=O)(=O)C3)cc1 | 0
Cc1sc2ncnc(NCc3ccco3)c2c1C | 0
COc1ccc(CC(=O)O/N=C(\N)Cc2ccc(OC)c(OC)c2)cc1 | 40
O=C(O)C1C2C=CC(C2)C1C(=O)OCC1CCCO1 (stereo not drawn) | 0
CC(C)(C)Cc1nc2ccccc2n1CCc1ccccc1 | 0
Cc1nc(N2CCN(C)CC2)c2c(C)c(C(=O)Nc3ccc(F)cc3)sc2n1 | 0

Screens (PubChem BioAssay)
